# Screens deposited in PubChem by National Center for Advancing Translational Sciences (NCATS).
# gsp agonist: activates gsp, the McCune-Albright syndrome mutation; AID 624287; actives 0.13% (n = 340,000); gsp mutant cells, cAMP HTRF, 30 min; control for the full effect not named in the record; Potency, µM (titrated, usually from 76.9 µM), for inactives: top-dose activation (cAMP increase), actives largely listed as activators; active = well fitted activation curve with a large enough effect; inconclusive = small, poorly fitted or top-dose-only effect, or another doubt; inactive = no such curve, though single readings can be large or run the other way; cell line not stated here;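 further: phosphodiesterase inhibitor Ro 20-1724 added with compounds to block cAMP breakdown; potency means the concentration at half of the fitted maximal effect; nearly all actives have a fitted effect of over 60% in size; about a fifth of the inactives were tested at one dose only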
#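 Cells in DMEM/10% FBS with G418 were pretreated with compounds in DMSO plus […] (300 uM stock) for 30 min at 37C. cAMP was measured by HTRF (cAMP-d2 plus anti-cAMP antibody-K) after 30 min at room temperature.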
# TRPML1 inh: inhibitors of human TRPML1 channel; AID 624415; activity change, negative = inhibition, % (concentration not given with the values); TRPML1-inducible cells, Ca2+ dye fluorescence, FDSS; active compounds read low; inhibition of EC80 agonist-evoked calcium signal; Q9GZU1; actives 0.02% (n = 390,000); in the data active means activity change below about -50%; inconclusive means about -30% to -50%; inactive means above about -30%;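 further: stimulus is agonist 54-4 at its EC80 concentration; on the % scale 0 is the no-effect control and ±100 the full control effect; the text of the record puts the active cut at -80%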
# Target sequence (Q9GZU1 whole entry, looked up): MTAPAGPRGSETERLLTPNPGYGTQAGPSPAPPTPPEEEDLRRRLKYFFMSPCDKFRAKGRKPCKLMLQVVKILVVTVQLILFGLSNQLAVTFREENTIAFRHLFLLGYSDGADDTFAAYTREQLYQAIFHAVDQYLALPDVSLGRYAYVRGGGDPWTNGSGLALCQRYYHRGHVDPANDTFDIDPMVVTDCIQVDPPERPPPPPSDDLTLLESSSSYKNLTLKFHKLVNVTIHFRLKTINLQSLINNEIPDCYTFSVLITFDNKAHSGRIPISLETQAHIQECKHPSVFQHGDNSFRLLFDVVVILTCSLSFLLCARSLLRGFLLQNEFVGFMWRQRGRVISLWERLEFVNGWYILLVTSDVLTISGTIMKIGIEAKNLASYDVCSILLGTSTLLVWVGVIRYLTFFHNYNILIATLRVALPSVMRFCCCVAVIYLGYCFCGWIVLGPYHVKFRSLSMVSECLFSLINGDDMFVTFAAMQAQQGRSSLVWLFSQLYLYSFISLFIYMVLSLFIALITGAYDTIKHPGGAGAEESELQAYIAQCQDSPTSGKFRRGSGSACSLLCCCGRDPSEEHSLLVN
#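 TRPML1-DL cells, Tet-induced overnight (~16 h, 37 °C) at 1,500 cells/well, were loaded with Ca8 no-wash dye plus quencher for 45-90 min at room temperature. Compounds were pinned during FDSS kinetic reading; agonist 54-4 at EC80 (4 uM final) then added.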
# Menin MLL FP FL: inhibitors of human menin-MLL interaction, wild-type MLL peptide; FP activity change, % at 61.4 µM; Fluorescence polarization, fluorescein-MLL peptide displacement from menin; 290,000 tested, under 10 active; AID 1766; inconclusive = falling polarisation curve, or a change in total fluorescence; inactive = total fluorescence flat and polarisation flat or rising; no compound was filed as active; the % refers to the polarisation; negative = inhibition;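 further: % of control where 0% means no effect; inhibitors lower the polarisation; unlabelled MLL peptide was the positive control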
# ClpP mod: qHTS Assay for Activators of ClpP. purified B. subtilis ClpP, FRET peptide cleavage, 20 min. Potency, µM (top dose mostly 57.5 µM), for the others: top-dose activity change, negative = active. actives 1.9% (n = 340,000); active = well fitted falling curve with a large enough effect; inconclusive = small, poorly fitted or top-dose-only effect; inactive = no such curve, though single readings can be large or run the other way; further: potency means the concentration at half of the fitted maximal effect; the source files actives as falling curves though it sought activators and does not explain the sign; nearly all actives have a fitted effect of over 65% in size; many hits overshoot -100%
# Target sequence (P80244 whole entry, looked up): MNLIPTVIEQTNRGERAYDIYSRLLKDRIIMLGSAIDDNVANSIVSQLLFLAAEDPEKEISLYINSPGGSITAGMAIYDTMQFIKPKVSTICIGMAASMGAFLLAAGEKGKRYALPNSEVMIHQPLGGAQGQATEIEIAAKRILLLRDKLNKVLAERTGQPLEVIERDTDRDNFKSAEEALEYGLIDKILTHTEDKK
#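 Buffer: 100 mM Tris/HCl pH8, 100 mM KCl, 0.05% low protease BSA, 2.5% glycerol, 0.01% Tween-20. ClpP 10 microg/mL final; 20 min RT; delta FRET normalized to ADEP and DMSO controls.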
# gsp antag: antagonizes gsp, the McCune-Albright syndrome mutation; Potency, µM (doses to about 76.9 µM), inactives show top-dose activity change, negative = inhibition, hits mostly inhibitors; gsp-mutant cells, cAMP HTRF, 30 min; control for the full effect not named in the record; actives 0.4% (n = 340,000); active = falling curve of any shape with a large fitted effect; inconclusive = falling curve, mostly with a smaller effect; inactive = flat or rising curve; cell line not stated here;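 further: intracellular cAMP measured with PDE inhibitor Ro 20-1724 present during compound exposure; potency means the concentration at half of the fitted maximal effect; on the % scale 0 is the no-effect control and ±100 the full control effect; nearly all actives have a fitted effect of over 65% in size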
#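 Measurement of cellular cAMP by homogeneous time-resolved fluorescence following a 30 min compound exposure at 37C. The PDE inhibitor […] was present throughout; the assay buffer was DPBS with 0.05% BSA and 0.005% Tween 20.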
# TRPML1 agonist: activates the human TRPML1 channel; Q9GZU1; TRPML1-expressing cells, Ca2+ dye fluorescence, FDSS; host cell line not named in the record; reference of the full effect not given here; activation, % (concentration not given with the values); actives 0.12% (n = 410,000); AID 624414; in the data active = activation above about 50%; inconclusive = about 30% to 50%; inactive = below about 30%; further: 0% is about no effect; the text of the record puts the active cut at 80%
#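 Cells: TRPML1-DL, 1X Tet inducer, ~16 h at 37 degrees C/5% CO2. Dye: ABD Ca8 no-wash + quencher, 45-90 min RT. Read: 10 s baseline, compound add, 110 s agonist phase; 54-4 EC80 (4uM final), 110 s antagonist phase.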
# An asterisk follows results filed as active; ? = inconclusive; . = no result given; & = joins results of further samples; [ ] = remark or other dose. No enrichment for hits (roughly 2.1% active in at least one column).
SMILES,gsp agonist,TRPML1 inh,Menin MLL FP FL,ClpP mod,gsp antag,TRPML1 agonist
Cc1nn(C)c(C(=O)N/N=C/c2cccnc2)c1Br,-9%,-4,.,-0.8%,7%,1.1
CCC(C)c1ccc(OCCn2cc(/C=N/NC(=O)CSc3nnc(C)s3)c3ccccc32)cc1 (configuration not stated),-15%,14,3.8,-2.6%,-3%,4.8
Nn1c(SCC(=O)N2CCCCCC2)nnc1-c1ccncc1,7%,16,-0.1,0.0%,3%,0.6
COc1ccc(CNC(=O)C2CCN(S(=O)(=O)c3cn(C)cn3)CC2)cc1,.,-3,.,2.4%,.,0.7
Cc1ccc(NC(=O)COC(=O)C2COc3ccccc3O2)cc1 (configuration not stated),-11%,0,.,0.3%,-18%,-0.1
CCCCC(=O)Nc1ccc(C(=O)NCCc2ccc(S(N)(=O)=O)cc2)cc1,-47%[inhibitor],15,6.1,.,7%,-0.4
CCOc1ccc(NC(=O)Cn2cc(C(=O)c3ccc(C)c(C)c3)c(=O)c3cc(OC)c(OC)cc32)cc1,.,30,.,-2.1%,.,-0.1
Cc1ccc(C(=O)N/N=C\C=C\c2ccccc2[N+](=O)[O-])cn1,-43%,-27,0.7,-1.3%,-1%,1.0
CCN(CC)C(=O)Cn1c(=O)cc(C)c2c(C)nn(C)c21,.,1,.,-23%,.,-0.4
CCOc1ccc(CCNC(=O)Cn2nc(CC)n3c(cc4c(OC)cccc43)c2=O)cc1OCC,.,10,.,-13%,.,-0.3
O=C(O)CCCCCNc1nc(=S)[nH]c2ccccc12,?,10,0.2,-2.3%,?,-1.0
CCCCOc1ccc(C(=O)NCC2(c3ccc(OC)cc3)CCOCC2)cc1,-2%[15.4 µM],12,3.1,-0.1%,-12%,0.3
CCN(CC(=O)Nc1ccc(C(=O)OC)cc1)Cc1ccccc1,-22%,1,0.1,-1.3%,6%,0.4
COc1ccc(CCN2C(=O)C3C4C=CC(C3C2=O)C2C(=O)N(CCc3ccc(OC)c(OC)c3)C(=O)C42)cc1OC (configuration not stated),-37%,37,5.1,1.8µM*,-19%,0.2
CCOC(=O)c1c(NC(=O)c2cc(-c3ccc(OC)c(OC)c3)on2)sc(C)c1C,.,-11,.,-6.1%,.,-0.3
CCOc1ccccc1/C=C/C(=O)N1CCN(C(=O)c2ccco2)CC1,-2%[15.4 µM],18,.,-2.0%,1%,-0.2
CC(C(=O)O)n1cc(Cl)cn1 (configuration not stated),26%,-17,3.8,.,13%,0.5
O=C(CSc1nc2ccccc2[nH]1)NCc1ccc2c(c1)OCO2,1%,-3,-0.1,0.5%,-6%,0.7
COc1ccc(OC)c(NC(=O)C(C)n2c(=O)cc(C)c3c(C)nn(-c4ccccc4)c32)c1 (configuration not stated),.,22,.,-2.5%,.,0.4
CCn1c(SCC(=O)N(C)C2CCCCC2)nc2cc(S(N)(=O)=O)ccc21,-34%[inhibitor],6,.,1.0%,0%,0.3
CCn1c(SCc2ccc(Cl)cc2Cl)nc2nc3c(cc2c1=O)CCCC3,18%,-3,2.0,0.0%,8%,1.5
Cc1ccc(-c2cc(C(=O)NCCCN3CCOCC3)c3ccccc3n2)cc1,13%[15.4 µM],-4,.,1.0%,9%,1.9
COC(=O)Cc1c(C)nc2nc(-c3cccnc3)[nH]n2c1=O,-3%,8,-0.3,-2.3%,14%,-0.3
Cc1ccc(SCC(=O)OCC(=O)NCCC2=CCCCC2)cc1,-3%,15,.,1.5%,17%,1.0
COc1ccc(NC(=O)Cn2nc(C)c3nn(-c4ccc(Cl)cc4)c(C)c3c2=O)cc1,.,1,.,6.8%,.,-0.1

# Whole records, looked up by structure. Screens in order: gsp agonist | TRPML1 inh | Menin MLL FP FL | ClpP mod | gsp antag | TRPML1 agonist
# Profile of Cc1ccc(NC(=O)COC(=O)C2COc3ccccc3O2)cc1 (configuration not stated) → -11% | 0 | . | 0.3% | -18% | -0.1
# Profile of CCN(CC(=O)Nc1ccc(C(=O)OC)cc1)Cc1ccccc1 → -22% | 1 | 0.1 | -1.3% | 6% | 0.4
# Profile of Cc1ccc(-c2cc(C(=O)NCCCN3CCOCC3)c3ccccc3n2)cc1 → 13%[15.4 µM] | -4 | . | 1.0% | 9% | 1.9
# Profile of CCOc1ccc(CCNC(=O)Cn2nc(CC)n3c(cc4c(OC)cccc43)c2=O)cc1OCC → . | 10 | . | -13% | . | -0.3
# Profile of Cc1nn(C)c(C(=O)N/N=C/c2cccnc2)c1Br → -9% | -4 | . | -0.8% | 7% | 1.1

# Carrying on:
SMILES,gsp agonist,TRPML1 inh,Menin MLL FP FL,ClpP mod,gsp antag,TRPML1 agonist
Nc1cccc(-c2nc3ccc(C(=O)c4ccccc4)cc3[nH]2)c1,4%,8,-3.9,-6.9%,-9%,-0.8
COc1ccc(NC(=O)c2cc(C3CCCCN3S(=O)(=O)Cc3ccccc3)on2)c(C)c1 (configuration not stated),.,5,.,-1.5%,.,0.8
CCOc1ccc(CCNC(=O)CCn2nc(C)c3c(C)n(-c4ccccc4)nc3c2=O)cc1,?,-16,.,-2.2%,-16%,0.9
COC(=O)c1ccccc1NC(=O)C1CC(=O)N(c2ccccc2)C1 (configuration not stated),-11%,1,-0.2,-15%,7%,0.1
COc1cc(OC)c(NC(=O)CCCn2nc(C)c3sc4ccccc4c3c2=O)cc1Cl,.,-12,.,-3.1%,.,0.8
Cn1c(=O)c2ccccc2n(Cc2ccccc2F)c1=O,-25%,22,3.8,-22%,-22%,0.6
CC(=O)Nc1ccc(S(=O)(=O)NCC(=O)OCc2ccccc2)cc1,-1%,-21,0.2,?,-2%,1.2
O=c1cc(-c2cccc(F)c2)oc2ccccc12,0%,-10,.,.,-5%,0.3
CCOC(=O)c1[nH]c2ccc(OC)cc2c1NC(=O)CCN1CCC(C)CC1,4%,-7,-2.3,28µM*,-2%,-0.9
O=C(N/N=C\c1cc2c(cc1Cl)OCO2)c1ccc(Br)s1,-2%,-7,.,-6.9%,0%,-0.4
CCCCN(C)C(=O)C1CCN(Cc2cccc(OCc3ccccc3)c2)CC1,3%,4,4.8,0.1%,10%,0.0
C=C(C)CN(CC)C(=O)CC1C(=O)NCCN1CC(C)(C)C (configuration not stated),23%,5,-13,4.3%,-2%,0.5
Cc1cc(C(=O)CSc2nnnn2-c2ccc(O)cc2)c(C)n1C,9%[15.4 µM],7,4.4,.,?,-0.2
N/C(=N\OC(=O)C1CCCCC1)c1ccccn1,6%,3,1.3,-1.4%,11%,0.2
Cc1nnc(Oc2ccc([N+](=O)[O-])cc2)c2ccccc12,?,1,6.0,0.7%,18%,-0.3
COc1ccc(S(=O)(=O)N(C)CC(=O)NCCCN2CCOCC2)cc1Cl,-7%[15.4 µM],-10,-4.4,1.4%,8%,-0.6
CC(=O)c1ccccc1NC(=O)COC(=O)/C=C/c1ccc(C)o1,-2%[15.4 µM],19,0.0,1.1%,-20%,0.3
CCOC(=O)c1cc2c(nc1NC(=S)Nc1ccccc1)CC(C)(C)OC2,10%,-7,0.9,2.6%,1%,-0.5
Cc1ccc(C(=O)NC(=S)N2CCCCCC2)cc1,-20%,14,.,3.5%,3%,-0.5
CCN(CC)S(=O)(=O)c1ccc(NCC2COc3ccccc3O2)c([N+](=O)[O-])c1 (configuration not stated),-25%,20,4.9,0.3%,-7%,0.3
CC1=NC(Nc2nc(C)c3ccccc3n2)=NC(C)(C)C1,1%,-12,6.3,-1.1%,-5%,-1.5
COc1ccccc1NC(=O)CN(C)S(=O)(=O)c1ccc(F)cc1,-7%,-8,1.9,1.1%,-7%,3.9
COc1cc2nc(NCC3CCCO3)n3nc(-c4cccnc4)nc3c2cc1OC (configuration not stated),-6%,-2,0.4,-6.9%,-5%,-0.1
CCOc1ccc(CCNC(=O)C(C)n2nc(C)n3c(cc4occc43)c2=O)cc1OCC (configuration not stated),23%,-11&-18,-0.4,-5.9%&-1.5%,3%,-1.0&0.5
CCCNC(=S)NC1CC2CCCC(C1)N2Cc1ccc(F)cc1 (configuration not stated),-15%,.,-5.3,0.0%,9%,.
# Later entries.
SMILES,gsp agonist,TRPML1 inh,Menin MLL FP FL,ClpP mod,gsp antag,TRPML1 agonist
O=C(Nc1cccc2ccccc12)N(CCO)C1CCS(=O)(=O)C1 (configuration not stated),4%,8,-7.2,.,2%,-0.4
CN1CCN(Cc2nc3cc(NC(=O)COc4ccc([N+](=O)[O-])cc4)ccc3n2C)CC1,?,9,.,1.0%,6%,0.2
COc1ccc(/C=C(\C#N)C(=O)OCC(=O)NC2CC2)cc1,-72%[inhibitor],?,-0.1,-1.8%,3%,0.0
N#Cc1c(N)nc2c(c1N)CC(C(F)(F)F)O2 (configuration not stated),5%[15.4 µM],-7,-3.8,.,.,0.2
O=C(CSc1nnnn1C1CC1)N1CCN(c2ccc(O)cc2)CC1,1%,1,.,-19%,-5%,-0.4
COc1ccc(C(=O)Nc2ccc3[nH]ccc3c2)cc1OC,12%[15.4 µM],11,.,.,1%,0.3
CC(=O)C(Sc1nc(NC(C)(C)C)nc(N(C)C)n1)C(C)=O,-5%,9,3.8,-1.1%,-6%,-0.2
CN1c2ccccc2C(O)=C(C(=S)Nc2ccc(Cl)cc2)S1(=O)=O,3%,-3,1.9,-0.2%,28µM*,-0.9
CCOc1ccc(NC(=O)CCS(=O)(=O)c2cccc3nsnc23)cc1,1%,-8,0.8,-0.3%,-1%,-0.6
CC1(C)CC2CC(C)(CN2/C=N/c2sc3c(c2C#N)CC(C)(C)NC3(C)C)C1 (configuration not stated),8%[15.4 µM],115,-25,-2.5%,2%,0.9
CCCCNC(=O)c1cc2c(=O)n3cccc(C)c3nc2n(CCN2CCOCC2)c1=N,15%,-2,2.0,13µM*,2%,-1.1
CCNC(=S)N(Cc1ccc2c(c1)OCO2)C1CC(=O)N(c2ccc(F)cc2)C1=O (configuration not stated),-53%,-14,3.0,1.6%,-12%,0.2
Nc1ccnc(C(F)(F)F)c1C(=O)c1ccccc1,0%,-11,-0.9,3.1%,1%,0.0
COc1ccc(C2CC(c3cccc(Cl)c3)n3nc(N)nc3N2)cc1 (configuration not stated),1%,0,0.3,-2.6%,-5%,1.7
CC(=O)c1ccc(NC(=O)COC(=O)c2c[nH]c3ccccc23)cc1,-1%,5,.,0.4%,0%,-0.1
Oc1ccccc1C1=Nc2ncnn2C(c2ccccc2)C1 (configuration not stated),30%,27,3.2,-8.2%,-23%,2.2
CC1CN(S(=O)(=O)c2ccc(NC(=O)CCN3C(=O)c4ccccc4C3=O)cc2)CC(C)O1 (configuration not stated),-1%,?,1.3,0.5%,4%,0.7
Cc1cc(C)cc(OCc2nnc(SCC(=O)OC3CCCCC3)o2)c1,4%,-14,-0.3,1.8%,-9%,3.0
